# Source: PubChem (Fisher Drug Discovery Resource Center)
# NPYLR7 ag: activates Aedes aegypti NPYLR7 receptor; HEK293T NPYLR7/Galpha15, GCaMP6s calcium fluorescence; hit rate 0.15% among 270,000; activation, % at 10 µM; in the data active means activation above about 40%;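 further: 0% = vehicle and 100% = reference agonist at the receptor; some compounds past the cut are filed as inactive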
# NPYLR7 ag max-min: further read-out of NPYLR7 ag, marked with its call; activation, %; measured here: Max-Min RFU normalised activation; some inactives read as strong as hits;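 span of the calcium signal over five minutes; 0% = vehicle and 100% = native peptide agonist; compound fluorescence can raise it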
# * = called active by the depositor. These rows are one share of the data; rates above refer to the full screens.
SMILES,NPYLR7 ag,NPYLR7 ag max-min
CCOC(=O)c1c(C)[nH]c(C)c1C(=O)CSc1n[nH]c(N)n1,8,9
Cc1nn(-c2ccccc2)c(C)c1NC(C)C(=O)N1CCOCC1 (centres undefined),13,9
O=C(c1ccc([N+](=O)[O-])cc1)N(Cc1cccnc1)c1nc2ccc(Br)cc2s1,-23,-13
Cc1cccc(Cn2ccn3nc(-c4ccc(C)c(C)c4)cc3c2=O)c1,-3,-4
Cc1cc(-n2c(C)cn(CN3CCN(c4cccc(Cl)c4)CC3)c2=O)no1,8,8
COC(=O)c1cc2n(n1)CCCN(C(=O)c1cnnn1-c1ccccc1)C2,-4,-5
COc1ccc(-c2nn3c(N4CCCCC4)cc(C)nc3c2C)cc1OC,5,9
COc1cc(CNc2ccc3ncc(-c4ccc(N(C)C)cc4)n3n2)cc(OC)c1OC,-5,-4
CC1=NN(Cc2ccc(Br)cc2)c2nc3c(c(=O)n(C)c(=O)n3C)n2C1,0,0
O=C1CN(CCCc2ccccc2)C2CS(=O)(=O)CC2N1c1cccc(Cl)c1 (centres undefined),3,2
O=C(c1cc2ccccc2oc1=O)N1CCc2onc(-c3ccccc3)c2C1,1,0
CN(C)c1nc(N2CCCCC2)nc(N2CCCCC2)n1,0,-3
CCCCNC(=O)N1CCN(C(=O)c2cc(-c3ccc(Cl)cc3)n(-c3ccccc3)c2C)CC1,-4,3
Cc1noc(C)c1S(=O)(=O)Nc1ccccc1C(=O)Nc1ccccc1,21,18
COc1ccc(CCNC(=O)c2ccccc2N2CCC(NC(=O)c3ccc([N+](=O)[O-])cc3)CC2)cc1OC,-1,0
O=C1c2sc3nnc(-c4ccccc4)c(=O)n3c2C(=O)N1Cc1ccccc1,0,35
CCC(C)N(Cc1cccn1Cc1cccc(OC)c1)C(=O)CN(CCCOC)C(=O)c1ccco1 (centres undefined),-8,-8
COc1cc(CN2C(=O)C(C)Sc3ccc(-c4ccco4)cc32)cc(OC)c1 (centres undefined),12,5
O=C(CSc1nc(=O)n(CCO)c2c1CCC2)N1CCc2ccccc21,-11,-19
CCOC(=O)c1nn(-c2ccc(C)cc2)c(=O)cc1OCC(=O)Nc1ccc(Br)cc1,8,4
O=C(c1ccc(Cl)c(Cl)c1)N1CCCN(c2nc(C3CCOCC3)nc3c2cnn3-c2ccccc2)CC1,-4,-1
COc1ccc(C(c2c(-c3ccccc3)n(O)c3ccccc23)N2CCOCC2)cc1 (centres undefined),-6,-2
CCN1CCN(C(=O)c2cc(-c3ccc(Cl)cc3)n(-c3cccc(OC)c3)c2C)CC1,10,24
Cc1ccc(C(C)NC(=O)c2cccc(NCc3sccc3C)c2)nc1 (centres undefined),22,14
O=C(c1cccc2cnccc12)N1CCc2c(ncnc2N2CCOCC2)C1,1,-2

# A different layout for some results above.
mol: CN(C)c1nc(N2CCCCC2)nc(N2CCCCC2)n1
  NPYLR7 ag = 0	NPYLR7 ag max-min = -3
mol: Cc1cccc(Cn2ccn3nc(-c4ccc(C)c(C)c4)cc3c2=O)c1
  NPYLR7 ag = -3	NPYLR7 ag max-min = -4

# Additional structures follow.
SMILES,NPYLR7 ag,NPYLR7 ag max-min
COC(=O)C1=C(O)/C(=C\c2cccn2C)SC1=Nc1cccc(Cl)c1,-6,2
Cc1cc(O)c(C(c2ccccn2)N2CCN(c3ccccn3)CC2)c(=O)n1Cc1ccco1 (centres undefined),9,4
O=C(CC1Cc2ccccc2C1)N1CCC(n2cnc3cc(C(F)(F)F)ccc32)CC1,-5,0
Cc1n[nH]c(C)c1S(=O)(=O)Nc1ccc(OCc2ccccc2)cc1,2,-1
O=C(Oc1coc(CSc2ncccn2)cc1=O)c1cccc(Br)c1,-12,-8
CCCCOC(=O)C1=C(C)NC2=C(C(=O)CCC2)C1c1cccc(Cl)c1Cl (centres undefined),-6,-5
O=C(CCl)NCCN1C(=O)SC(=Cc2ccccc2)C1=O,-5,-8
COc1ccc(NC(C)=O)cc1NC(=O)c1cc(Cl)ccn1,11,7
CCOc1cc(C=C2C(=O)NC(=S)NC2=O)ccc1OCCOc1ccc(C(C)(C)C)cc1,-5,-10
CCOC(=O)c1c(NC(=O)c2ccc(OC)cc2)c(-c2cccc(F)c2)cn1C,12,12
C=c1[nH]/c(=C\c2ccc(OC(F)F)cc2)c(=O)o1,-1,-11
COc1cccc(COC2CCCN(C(=O)c3cc(OC)cc(OC)c3)C2)c1 (centres undefined),-2,1
CCOC(=O)COc1ccc(N)cc1CC(NC(C)=O)(C(=O)OCC)C(=O)OCC,-12,-17
O=C(N=C1N=C2C=CC(Cl)=CN2Cc2ccccc21)c1ccc(S(=O)(=O)N2CCCCC2)cc1,-7,-13
CCS(=O)(=O)N1CCCc2ccc(NC(=O)c3ccc(OC(C)C)cc3)cc21,-5,2
CCOC(CNC(=O)c1nn(-c2ccccc2)c(=O)cc1OC)OCC,4,1
CC1(C(=O)Nc2ccc3[nH]ncc3c2)CCN1C(=O)C1(c2ccccc2)CC1 (centres undefined),2,16
CN1CCCC(CN(CCc2ccccc2)C(=O)c2ccc3cc[nH]c3c2)C1 (centres undefined),4,1
O=C1CSC(c2ccccn2)N1c1ccc(F)c(Cl)c1 (centres undefined),-5,-9
Cc1nc(N2CCOCC2)sc1CNCc1ccc(OC(F)F)cc1,6,2
CCCN1C(=O)C(=Cc2c(NCCOC)nc3c(C)cccn3c2=O)SC1=S,-1,-2
CCOc1ccc2ccccc2c1C(=O)NNc1cc(=O)n(C)c(=O)n1C,2,2
COc1cccc(-c2cc(C(=O)NCc3ccc(F)cc3)c(C)n2-c2ccccc2)c1,-10,-6
[O-][n+]1ccc(-c2nnc3n2CCCCC3)cc1,-1,7
CCOC(=O)c1cnc(-c2ccncc2)nc1NCc1cccs1,-3,3

# The list continues:
SMILES,NPYLR7 ag,NPYLR7 ag max-min
COc1ccc(NC(=O)C2(C)CCN2C(=O)c2ccccc2CCc2ccccc2)cc1OC (centres undefined),10,8
CC(N)C12CC3CC(CC(O)(C3)C1)C2 (centres undefined),1,3
Cc1ccc(CN(C(=O)c2ccc(=O)[nH]c2)C2CCCC2)s1,-1,-2
Cc1nc2ncccc2c(=O)n1-c1ccc(F)c(NC(=O)c2cccc([N+](=O)[O-])c2)c1,8,3
Cc1cnc(NC(=O)Cc2ccc(C)c(C)c2)s1,6,2
CC1Sc2ccc(C(F)(F)F)cc2N(Cc2ccccc2Cl)C1=O (centres undefined),8,6
Cc1ccc(-c2c(N)n[nH]c2C(F)(F)F)cc1,1,-3
Cc1nc2c(C)cccc2cc1C(=O)N1CCN2CCN(C)CC2C1 (centres undefined),3,2
CN(Cc1cccc2cccnc12)S(=O)(=O)c1cccs1,-7,-8
Cc1ncc(C)c(N2C[C@@H]3CN(C(=O)C4CC4)C[C@]3(C(=O)O)C2)n1,2,2
CCOc1ncccc1-c1ccc(C)nc1N,-5,-5
CCCCCn1c(NC2CCCCC2)nc2c1c(=O)[nH]c(=O)n2C,-7,-9
Fc1cccc(CSc2nnc(-c3ccc4c(c3)OCO4)o2)c1,-2,-3
O=C(c1cn(CCN2CCCCC2)nn1)N1CCc2ccccc2C1,-1,-5
COc1ccc([C@@H]2C[C@H](NC(C)=O)C[C@H](c3ccc(Cl)cc3)O2)cn1,2,2
O=C(Cc1csc(NC(=O)NC2CCCCC2)n1)Nc1ccc(Oc2ccccc2)cc1,-2,-1
CCN(CC)Cc1cnc2c(C(=O)N3CCCCC3C(N)=O)cnn2c1 (centres undefined),10,6
Cc1ccc(-n2ncc3c2CC(C)(C)CC3NC(=O)CCc2ccc3c(c2)OCO3)cc1 (centres undefined),5,5
CCN(CC(=O)Nc1cccc(OC)c1)C(=O)c1ccc2c(c1)S(=O)(=O)N(C)C2=O,6,2
O=C(Cc1csc(Nc2ccccc2)n1)NC1CC1,9,1
COc1ccc(-c2csc(NC(=O)C3CCCN(C(=O)N(C)C)C3)n2)cc1Cl (centres undefined),5,4
CCc1nc2n(n1)C(=O)C(C(c1ccc(OC)c(OC)c1)N1CCC(C)CC1)S2 (centres undefined),-1,16
CS(=O)(=O)c1ccc2c(c1)CCCN2C(=O)c1cc(=O)[nH]c2ccccc12,4,2
CN1CC(=O)N(CCCC(=O)O)C1=O,6,6
Cc1ccc(-c2ccc(NC(C)c3ccccc3)nn2)cc1S(N)(=O)=O (centres undefined),-12,-18

# One compound at a time, from the list above. Values in the order: NPYLR7 ag	NPYLR7 ag max-min
# O=C(c1cn(CCN2CCCCC2)nn1)N1CCc2ccccc2C1 in the list: -1	-5
# Cc1nc2ncccc2c(=O)n1-c1ccc(F)c(NC(=O)c2cccc([N+](=O)[O-])c2)c1 in the list: 8	3
# Cc1cnc(NC(=O)Cc2ccc(C)c(C)c2)s1 in the list: 6	2
# CCN(CC(=O)Nc1cccc(OC)c1)C(=O)c1ccc2c(c1)S(=O)(=O)N(C)C2=O in the list: 6	2
# Cc1ccc(CN(C(=O)c2ccc(=O)[nH]c2)C2CCCC2)s1 in the list: -1	-2

# Next section.
SMILES,NPYLR7 ag,NPYLR7 ag max-min
CC1Cc2ccccc2N1CC(O)c1ccccc1 (centres undefined),12,2
CCCCCCNC(=O)c1cc(-c2cccs2)nn1-c1ccc(F)cc1,21,26
COc1cc(-c2cccc3cccnc23)ccc1NC(C)=O,2,-3
CCCn1cc(CNC(=O)Cc2ccccn2)cn1,22,15
c1ccc(Nc2nc(N3CCCCCC3)nc3nccnc23)cc1,17,16
O=S(=O)(c1ccc(Br)s1)N1CCC(Cc2ccccc2)CC1,-9,-13
CN(C)S(=O)(=O)c1ccc(C(=O)Nc2ccc3c(c2)C(=O)c2ccccc2C3=O)cc1,20,20
COc1ccc(S(=O)(=O)N2CCc3ccccc3C2)cc1N1CCN(C(=O)CSc2ccccc2)CC1,24,24
CN(C)c1ccc(-c2cnc3ccc(NCc4ccc5c(c4)OCO5)nn23)cc1,13,8
O=C(NCCc1ccc(Cl)cc1Cl)c1csc(CSc2nnc(Cc3ccccc3)n2-c2ccccc2)n1,2,8
Cc1cc(CN2C(=O)CC3(CCSC3)C2=O)on1 (centres undefined),0,0
CCOC(=O)N(C)c1c(CC)nc2c(OCC=C(C)C)cccn12,3,-9
CC(=O)N1CCCn2nc(C(=O)NC(C)Cc3cc(C)[nH]n3)cc2C1 (centres undefined),-1,-7
O=C(CS(=O)(=O)c1c[nH]c2ccccc12)Nc1ccc(Br)cc1,-5,-7
Clc1ccc(Br)cc1-c1nnc(-c2ccncc2)o1,8,7
O=C(OCC(=O)N1CCCC1c1ccc(Cl)c(Cl)c1)C1CCOC1 (centres undefined),3,-1
COc1ccc(C(=O)NC(C(=O)NC(C)C(C)C)C2CCN(C(=O)CCc3ccccc3)CC2)cc1 (centres undefined),-21,-14
CS(=O)(=O)N1CCN(C(=O)c2cccnc2)C[C@H]1C(=O)N[C@H](Cc1cc2ccccc2[nH]1)C(N)=O,-8,-14
COCCCn1c(SCC(=O)N2CCc3ccccc32)nnc1-c1ccccc1Cl,-5,-10
Cc1c(Cl)c(C(F)(F)F)nn1CC(=O)NCc1ccc(F)cc1,-10,-13
Cc1ccccc1C(=O)NNC(=O)C(C)N1C(=O)c2ccccc2C1=O (centres undefined),4,2
COc1ccc(NC(=O)CSc2ccc(-c3sc(-c4cccs4)nc3C)nn2)cc1,7,-5
CCOCCCNC(=O)Nc1c[nH]c2ccccc12,1,-4
O=[N+]([O-])c1cccc(-c2ccc(SCc3cn4ccccc4n3)nn2)c1,18,12
CC1(Cc2ccc(C(F)(F)F)nc2)C(=O)Nc2ccc(OC(F)(F)F)cc21 (centres undefined),10,7

# New compounds follow:
SMILES,NPYLR7 ag,NPYLR7 ag max-min
CCCN(CC(=O)Nc1cc(C(C)(C)C)nn1-c1cccc(C)c1C)C(=O)c1ccc(Cl)c(Cl)c1,19,21
O=C1CN(C(=O)OCc2ccccc2)CC(O)CN1CC1CC1 (centres undefined),20,39
COc1ccc(S(=O)(=O)N2CCC(Cc3ccccc3)CC2)cc1N1CCN(S(=O)(=O)c2cc(C)ccc2C)CC1,26,18
Cn1c(C(C#N)=C(O)c2ccc(Cl)cc2)nc2ccccc21,4,2
Cc1ccc(NC(=O)N2CC(C)(C)SC23C(=O)N(Cc2ccccc2)c2ccc(Cl)cc23)cc1C (centres undefined),7,12
COc1cccc(-c2cnc3c(NC=O)cc(-c4ccoc4)cn23)c1,0,-5
Cc1ccc(C(NCC(=O)NC(=O)NC(C)(C)C)C2CC2)cc1 (centres undefined),4,1
COc1cc2c(cc1O)NC(=O)CC2c1c(C)nn(C)c1Cl (centres undefined),13,6
CCCCCCCCC(=O)Nc1c(-c2ccc(F)c(F)c2)nc2ccccn12,-7,-1
CCOCCn1cc(C2CCN(S(=O)(=O)c3ccc(NC(C)=O)cc3)CC2)c2ccccc21,-2,-7

# Quoted from the listing:
# CCOCCn1cc(C2CCN(S(=O)(=O)c3ccc(NC(C)=O)cc3)CC2)c2ccccc21 in NPYLR7 ag max-min → -7
# COc1cc2c(cc1O)NC(=O)CC2c1c(C)nn(C)c1Cl (centres undefined) in NPYLR7 ag → 13
# COc1cccc(-c2cnc3c(NC=O)cc(-c4ccoc4)cn23)c1 in NPYLR7 ag → 0
# COc1ccc(S(=O)(=O)N2CCC(Cc3ccccc3)CC2)cc1N1CCN(S(=O)(=O)c2cc(C)ccc2C)CC1 in NPYLR7 ag → 26

# Filtered by structure, the entries above with a nitro group on carbon.
SMILES,NPYLR7 ag,NPYLR7 ag max-min
O=C(c1ccc([N+](=O)[O-])cc1)N(Cc1cccnc1)c1nc2ccc(Br)cc2s1,-23,-13
COc1ccc(CCNC(=O)c2ccccc2N2CCC(NC(=O)c3ccc([N+](=O)[O-])cc3)CC2)cc1OC,-1,0
Cc1nc2ncccc2c(=O)n1-c1ccc(F)c(NC(=O)c2cccc([N+](=O)[O-])c2)c1,8,3
O=[N+]([O-])c1cccc(-c2ccc(SCc3cn4ccccc4n3)nn2)c1,18,12
